Bioassay records: PubChem, National Center for Advancing Translational Sciences (NCATS)
Marburg entry inh: inhibitors of Marburg virus binding or cell entry | AID 540276 | Potency, µM (series often up to 37.8 µM), without a hit: at the top dose activity change, negative = inhibition, hits mostly inhibitors | Marburg virus pseudotyped entry inhibition, cell reporter; control for the full effect not named in the record; about a third of the inactives were read at about 46 µM | hit rate 1.8% among 300,000; active = well fitted inhibition curve with a large enough effect; inconclusive = small, poorly fitted or top-dose-only effect, or effect the other way; inactive = flat fitted curve, though single readings scatter; tested in HEK293 cells; about a fifth of its hits are not listed in these tables; further: on the % scale 0 is the no-effect control and ±100 the full control effect; luciferase read-out
Cruzain Triton: blocks cruzain activity in presence of Triton detergent | P25779 | purified cruzain, Z-FR-AMC fluorescence, 0.01% Triton | Potency, µM, inactives show max response, negative = inhibition, usual class: inhibitors | hit rate 0.43% among 200,000 | AID 1478;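 further: plate controls were neutral wells for no effect and buffer without enzyme for full effect; nearly all actives have a fitted effect of over 40% in size; top concentration of the series not given in the record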
Target sequence (P25779 123-467 limits assumed): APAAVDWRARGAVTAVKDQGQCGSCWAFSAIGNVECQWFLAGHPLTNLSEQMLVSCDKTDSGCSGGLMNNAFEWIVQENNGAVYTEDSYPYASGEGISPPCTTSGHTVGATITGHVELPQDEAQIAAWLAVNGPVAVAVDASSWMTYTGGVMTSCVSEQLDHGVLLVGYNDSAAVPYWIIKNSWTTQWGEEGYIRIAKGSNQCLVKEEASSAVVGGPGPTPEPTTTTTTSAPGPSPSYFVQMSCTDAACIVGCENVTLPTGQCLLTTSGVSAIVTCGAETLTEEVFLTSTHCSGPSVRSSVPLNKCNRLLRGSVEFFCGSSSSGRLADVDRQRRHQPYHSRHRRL
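Cruzain (1.5 nM) preincubated 15 min at RT with compound in 100 mM sodium acetate pH 5.5, 5 mM DTT, 0.01% Triton X-100. Reaction started with 2 uM Z-FR-AMC; AMC fluorescence (ex 360/em 450 nm) change over 60 s gave rate.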
RE007 growth inh: less growth of the S. pombe RE007 Vpr strain; Potency, µM (doses to about 92.2 µM), inactives show at the highest dose activity change, negative = less growth; hit rate 0.21% among 360,000; S. pombe RE007 Vpr strain, BacTiter-Glo ATP luminescence, 24 h; control for the full effect not named in the record; AID 651644; active = well fitted falling curve with a large enough effect; inconclusive = small, poorly fitted or top-dose-only effect; inactive = no such curve, though single readings can be large or run the other way;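 further: on the % scale 0 is the no-effect control and ±100 the full control effect; nearly all actives have a fitted effect of over 50% in size; the assay follows cell death caused by Vpr and the record does not say whether a fall means rescue or toxicity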
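Fission yeast RE007 carrying one integrated HIV-1 vpr copy, seeded at OD 0.01 in PMG+AL medium with 23 nL pinned compound. Grown 24 h at 30 degrees; viability read by BacTiter-Glo luminescence after 5 min.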
Cruzain noTriton: cruzain (T. cruzi) inhibition without detergent. hit rate 2.3% among 200,000. purified cruzain, Z-FR-AMC fluorescence, no detergent. Potency, µM, for inactives: max response, negative = inhibition, hits mostly inhibitors. P25779;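 further: plate controls were enzyme without inhibitor for no effect and buffer without enzyme for full effect; nearly all actives have a fitted effect of over 40% in size; top concentration of the series not given in the record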
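Detergent-free condition (0.00005% Triton X-100) in acetate buffer pH 5.5 with DTT. 1.5 nM enzyme and compound were pre-mixed 15 min, then 2 uM Z-FR-AMC substrate added; reaction progress from fluorescence change between first and third reads (60 s).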
NS1 function inh: blocks influenza NS1 protein function | Potency, µM (series often up to 46.1 µM), for inactives: at the highest dose activity, positive = more growth | AID 2326 | hit rate 0.4% among 270,000 | S. cerevisiae slowed by influenza A NS1, growth recovery by OD600; active means well fitted rising curve with a large enough effect; inconclusive means small, poorly fitted or top-dose-only effect; inactive means no such curve, though single readings can be large or run the other way; further: nearly all actives have a fitted effect of over 50% in size
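Recovery from NS1-induced slow growth read by OD600 in budding yeast switched to galactose assay medium (pH 6.0, -URA) at 1:100 dilution. Compound 23 nl per well; the matching strain lacking NS1 serves as control.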
StopGo reporter: FMDV 2A StopGo reporter, luciferase signal | human cells with a luciferase reporter of 2A StopGo recoding; control for the full effect not named in the record | Potency, µM (highest dose often 57.9 µM), for inactives: at the highest dose signal change, negative = less light | hit rate 1.2% among 410,000; active = well fitted falling curve with a large enough effect; inconclusive = small, poorly fitted or top-dose-only effect; inactive = no such curve, though single readings can be large or run the other way; tested in HEK293T cells; further: on the % scale 0 is the no-effect control and ±100 the full control effect; nearly all actives have a fitted effect of over 45% in size; luciferase light after 4 h
SARS PLpro yeast: SARS-CoV PLP inhibition in yeast. hit rate 0.19% among 330,000. S. cerevisiae expressing SARS-CoV PLpro, growth rescue; control for the full effect not named in the record. AID 485353. Potency, µM (top dose mostly 32.9 µM), for inactives: at the highest dose activity, positive = growth rescue; active means well fitted rising curve with a large enough effect; inconclusive means small, poorly fitted or top-dose-only effect; inactive means no such curve, though single readings can be large or run the other way; further: 0% is about no effect; nearly all actives have a fitted effect of over 55% in size; growth read by luminescence after 48 h
Lassa entry inh: blocks Lassa virus binding to or entry into cells; Lassa virus pseudotype entry inhibition, cell reporter; control for the full effect not named in the record; Potency, µM (series often up to 37.9 µM), for the others: at the top dose activity change, negative = inhibition, usual class: inhibitors; hit rate 1.2% among 300,000; active means well fitted inhibition curve with a large enough effect; inconclusive means small, poorly fitted or top-dose-only effect, or effect the other way; inactive means flat fitted curve, though single readings scatter; tested in HEK293 cells; further: on the % scale 0 is the no-effect control and ±100 the full control effect; nearly all actives have a fitted effect of over 50% in size; luciferase read-out
An asterisk follows results filed as active; u = inconclusive; x = no result given; & = joins results of further samples; [ ] = remark or other dose. Unless noted, the call rests on the fitted dose curve; in most records, active means well fitted curve in the direction sought with a large enough effect; inconclusive means small, poorly fitted or top-dose-only effect, or another doubt; inactive means no such curve, though single readings can be large; an effect the other way counts as inactive or inconclusive. Potency means the concentration at half of the fitted maximal effect.

Value order: Marburg entry inh, Cruzain Triton, RE007 growth inh, Cruzain noTriton, NS1 function inh, StopGo reporter, SARS PLpro yeast, Lassa entry inh
COc1ccc(CCC(=O)NCc2nc3cccnc3n2Cc2ccc(OC)cc2)cc1
    x, -2.9%, x, 4.6%, x, -1.3%, x, -1.9%[46.1 µM]
O=C(NOC(=O)c1ccccc1F)c1ccc(OC(F)F)cc1
    u, x, -1.1%, x, -34.1%, -0.1%, -4.3%, 9.8%[46.1 µM]
CCOC(=O)C1=C(C)NC(=O)N(C(C)=O)C1c1ccc(Cl)cc1 (centres undefined)
    u, -2.5%, 5.8%, 9.0%, 8.9%, -22.0%, 7.1%, 6.6%
COc1cc(/C=N/NC(=O)c2nc(-c3ccccc3)n(-c3ccccc3)n2)ccc1O
    35.8%, -8.0%, x, -3.6%, -1.1%, -17.4%, -3.5%, -9.8%
CC1(OC(=O)CCc2ccccc2)C(=O)C=C2C=C(c3ccc(C#N)cc3)N(C3CCCC3)C=C2C1=O (centres undefined)
    x, x, -15.1%, x, 12.2%, -16.9%, 3.6%, x
CC1(c2nnc(-c3ccc(F)cc3)o2)CC(c2ccccc2)=NO1 (centres undefined)
    x, x, 9.5%, x, -35.6%, -3.5%, -0.4%, x
CCOc1cc(C=O)ccc1OCC(=O)NC(C)(C)C
    9.2%, x, 11.9%, x, -6.2%, -10.1%, 0.2%, -3.6%
Cc1cc(-c2n[nH]c(=S)n2/N=C/c2c[nH]c3ccccc23)n[nH]1
    x, x, -5.9%, x, -1.3%, 0.6%, 0.9%, x
O=C1NC(=O)C(c2cccs2)(c2cccs2)N1
    6.3%[46.1 µM], x, -1.0%, x, -4.3%, 3.3%, -0.8%, 2.1%[46.1 µM]
Fc1ccc2c(c1)C(c1ccc(N3CCOCC3)cc1)=NNC(c1cccs1)=N2
    u, -2.4%, -9.2%, -1.5%, 11.9%, -18.9%, -25.8%, u
NS(=O)(=O)c1ccc(NC(=O)CN2C(=O)C3C4C=CC(C4)C3C2=O)cc1 (centres undefined)
    -0.6%, x, u, x, 0.5%, 4.2%, 0.1%, 3.3%
O=C(CCCN1C(=O)c2ccccc2C1=O)Nc1ccc(S(=O)(=O)N2CCOCC2)cc1
    0.1%, 0.3%, 0.9%, -7.3%, -23.0%, -18.5%, 0.4%, u
COc1cccc(-c2nc(CS(=O)(=O)c3ccccc3)no2)c1
    -1.8%, 1.2%, 4.3%, 5.3%, -13.5%, -7.2%, 1.8%, u
CC(Nc1cc(N2CCOCC2)ccc1[N+](=O)[O-])c1ccccc1 (centres undefined)
    -2.5%, -16.8%, 2.8%, 17.4%, 13.1%, -7.4%, 16.4%, -1.2%
COCCn1c(SCC(=O)OCc2ccccc2)nc2c1c(=O)[nH]c(=O)n2C
    x, 0.1%, 3.0%, -5.2%, u, -11.1%, -4.9%, x
O=C(COC(=O)c1nn(-c2ccccc2)c(=O)c2ccccc12)NC1CCS(=O)(=O)C1 (centres undefined)
    17.2%[46.1 µM], x, -13.9%, x, x, 1.8%, -5.4%, -1.6%
COc1ccc(CCC(=O)Nc2ccc(C)c(S(=O)(=O)N(C)C)c2)cc1OC
    11.2µM*, -1.7%, -2.8%, -9.2%, -9.5%, 10µM*, 7.1%, -0.9%
CCN1CCN(C(c2cccs2)C(C)NC(=S)Nc2cc(C)ccc2C)CC1 (centres undefined)
    x, x, -2.8%, x, -9.7%, 4.5%, -1.4%, x
COc1ccc(OCC(=O)Nc2cc3oc4ccccc4c3cc2OC)cc1
    u, -6.6%, -14.1%, -10.6%, u, -19.3%, 17.6%, 3.0%
NC(=O)C1=C[C@@H](c2coc3ccccc3c2=O)C[C@@H](OCc2ccc(CO)cc2)O1
    x, x, -9.0%, x, -3.1%, -6.2%, 0.3%, x

Value order: Marburg entry inh, Cruzain Triton, RE007 growth inh, Cruzain noTriton, NS1 function inh, StopGo reporter, SARS PLpro yeast, Lassa entry inh
CCc1ccc(CN(Cc2cn[nH]c2-c2ccc(OC)cc2)C(=O)Nc2cc(Cl)ccc2OC)cc1
    -23.0%[46.1 µM], -7.6%, x, -2.1%, x, u, x, 0.1%[46.1 µM]
COc1ccc(C(=O)C2CCCN(CCO)C2)c(C)c1 (centres undefined)
    -0.9%[46.1 µM], x, 21.5%, x, 20.2%, -5.1%, 7.1%, 15.4%[46.1 µM]
CCNc1nc(SC(C)C(=O)OC)nc(N2CCOCC2)n1 (centres undefined)
    u, 1.0%, 15.1%, 17.6%, -61.9%, -6.9%, 7.3%, -0.2%
O=C(Nc1cc2c(cc1C(=O)c1ccccc1Br)OCCO2)c1cccc(Cl)c1
    14.5%[46.1 µM], 1.4%, x, -1.2%, x, -15.4%, x, 13.9%[46.1 µM]
CSc1nc(C)c2c(n1)N(c1ccc(O)cc1)CC2
    3.9%[46.1 µM], x, -13.6%, x, x, -22.2%, -4.1%, -18.2%[46.1 µM]
COc1ccc(CC(C)N2CCN(c3ccccc3OC)CC2)cc1OC (centres undefined)
    -11.5%, 4.4%, -6.1%, -8.8%, 0.6%, 0.0%, -4.3%, u
O=C(COC(=O)Cc1c(F)cccc1Cl)NCCC1=CCCCC1
    10.8%, -3.4%, -3.3%, 0.9%, -17.4%, 1.7%, 10.0%, -14.5%
COc1cc(NC(=O)COC(=O)[C@@H]2CCCN2S(=O)(=O)c2ccc(Cl)cc2)cc(OC)c1OC
    u, -3.3%, 23.6%, u, -17.8%, -5.3%, 3.5%, 0.2%
CCOc1ccc(NC(=O)c2ccccc2OCC(=O)c2ccccc2)cc1
    u, -6.3%, -5.4%, 3.2%, 7.6%, 5.0%, -10.1%, -19.5%
CCOc1ccccc1CNC(=O)c1cccn1-c1nnc(N2CCCCC2)s1
    x, 1.9%, x, -6.9%, x, 9.4%, x, u
COc1cc2c(cc1OC)CN(c1ccc(C(F)(F)F)cn1)CC2
    u, x, u, x, -28.6%, 15.6%, -5.9%, 6.3%[46.1 µM]
COc1ccccc1CNC(=O)c1ccc(NC(=O)N2CC(C)Sc3ccccc32)cc1 (centres undefined)
    -13.6%[46.1 µM], -3.1%, x, -2.6%, x, -11.1%, x, u
COc1ccc(NC(=S)N(CCC(C)C)C2CCN(C(C)C)CC2)cc1Cl
    u, x, -16.7%, x, -11.1%, -23.3%, 0.1%, u
COc1ccc(-c2csc(Nc3ccc(S(=O)(=O)Nc4cc(OC)nc(OC)n4)cc3)n2)cc1
    -11.7%, -7.5%, -9.4%, -25.8%, 12.6µM*, -24.8%, 5.4%, -6.3%
Cc1nn(C)c(C(=O)N/N=C/c2cccc(Oc3ccccc3)c2)c1Br
    -7.9%, x, 5.2%, x, 7.1%, u, 7.8%, u
Cc1cc(N2CCOCC2)nc2ccc(NC(=O)CCC(=O)N3CCN(c4ccc(F)cc4)CC3)cc12
    2.2%[46.1 µM], x, -18.1%, x, -14.9%, -0.9%, -0.6%, -22.5%[46.1 µM]
Cc1csc(SCC(=O)Nc2cc(S(=O)(=O)N3CCCC3)ccc2Cl)n1
    0.1%[46.1 µM], -3.3%, 11.5%, -5.2%, 6.8%, -16.1%, 5.5%, -8.6%
CC1CCN(S(=O)(=O)N2CCC(C(=O)O)CC2)CC1
    10.4%, -2.3%, 50.0%, -6.0%, 5.5%, -6.6%, 8.4%, 3.9%
COc1cc(CCN)ccc1O
    14.7%&14.7%&14.7%&14.7%&14.7%, -5.0%, -2.4%, 6.7%, 6.9%, -22.9%&-15.1%, x, x
CCOc1ccc(C(CC(=O)O)NC(=O)c2sc3ccccc3c2Cl)cc1 (centres undefined)
    -4.2%, -6.0%, -3.4%, 5.4%, 11.2%, -23.5%, -2.4%, 11.5%

3 of the compounds above, bar-delimited:
mol | Marburg entry inh | Cruzain Triton | RE007 growth inh | Cruzain noTriton | NS1 function inh | StopGo reporter | SARS PLpro yeast | Lassa entry inh
Cc1csc(SCC(=O)Nc2cc(S(=O)(=O)N3CCCC3)ccc2Cl)n1 | 0.1%[46.1 µM] | -3.3% | 11.5% | -5.2% | 6.8% | -16.1% | 5.5% | -8.6%
CC1CCN(S(=O)(=O)N2CCC(C(=O)O)CC2)CC1 | 10.4% | -2.3% | 50.0% | -6.0% | 5.5% | -6.6% | 8.4% | 3.9%
COc1cc(CCN)ccc1O | 14.7%&14.7%&14.7%&14.7%&14.7% | -5.0% | -2.4% | 6.7% | 6.9% | -22.9%&-15.1% | x | x

(list continues)
Value order: Marburg entry inh, Cruzain Triton, RE007 growth inh, Cruzain noTriton, NS1 function inh, StopGo reporter, SARS PLpro yeast, Lassa entry inh
O=C(C=Cc1ccccc1)c1c[nH]c2ccccc2c1=O
    u, x, 2.9%, x, x, -18.4%, x, u
O=C(Nc1ccc(F)cc1F)c1c(C(F)(F)F)ccnc1Oc1cccc(C(F)(F)F)c1
    -27.3%[46.1 µM], x, 22.9%, x, 4.5%, 7.1%, -0.2%, u
C=Cn1cc[n+](CC(=O)c2ccc(OC)cc2)c1
    3.0%, x, 0.7%, x, 8.8%, -18.7%, -13.6%, -3.7%
Cc1ccc(Cn2cccc2C2=NC(C)(C)CO2)cc1
    -21.2%[46.1 µM], -2.0%, x, -1.2%, x, -11.5%, x, 28.8%[46.1 µM]
COc1cccc(C(=O)C2CCCN(C/C=C/c3ccccc3OC)C2)c1 (centres undefined)
    u, x, -5.7%, x, 0.9%, -5.4%, -0.3%, -21.4%[46.1 µM]
Cc1cc(-c2nc3ncccc3o2)ccc1NC(=O)COc1ccccc1C
    x, 0.2%, x, 3.0%, x, 0.0%, x, 0.5%[46.1 µM]
COCCN(Cc1ccccc1)C(=O)c1ccc2c(=O)n3c(nc2c1)CCC3
    -2.6%, x, -9.6%, x, x, -21.5%, 3.1%, 23.2%
CC1=CC2=NC(=O)/C(=C\c3cccn3CCOc3ccccc3)C(=N)N2O1
    -19.5%, -9.4%, 4.7%, -3.7%, -21.5%, 35.9%[activator], -4.9%, u
c1ccc2c(c1)CNC1(CCCCC1)C2
    0.7%, 4.0%, -4.0%, 1.1%, 4.2%, -15.9%, 0.7%, 4.6%

The order is random; any-hit rate near 4.5%.
